# Screens deposited in PubChem BioAssay by ICCB-Longwood Screening Facility, Harvard Medical School.
# CapD inh = Bacillus anthracis CapD inhibitors, primary screen, biochemical, fluorescence intensity. CapD gamma-glutamyltranspeptidase (Bacillus anthracis Ames Ancestor). purified CapD enzyme, fluorescence intensity read-out; hits give low values; some hits fall short of the stated cut. z-score (concentration not given with the values). hit rate 0.23% among 140,000. AID 492967, 2010;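 active = z-score under -4 in either of two replicates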;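 note: stock transfer was 100 nL into about 40 µL; score is relative to mean and spread of the plate; one replicate is shown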
# AID504770 = growth inhibition of E. coli YBA685, primary screen, V. cholerae RctB inhibitors; E. coli YBA685 rctB-dependent plasmid, OD600 growth, 3 h; hits give low values; z-score (test concentration not listed); hit rate 0.27% among 130,000;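 active = z-score under -2 on both plates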;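 note: wells of about 30 µL received 100 nL stock; score is relative to mean and SD of the test wells; the first replicate is given; strong numbers were not always called active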
# * marks the source's active call; other numbers are inactive results; i = inactive; · = no result given; & = joins results of further samples.
Compound | CapD inh | AID504770
CC(=O)N1N=C(c2c(-c3ccccc3)c3cc(Br)ccc3[nH]c2=O)CC1c1nc2ccccc2[nH]1 (configuration not stated) | 0.49 | ·
Cc1c(C(=O)NN=Cc2ccc(-c3ccc(Cl)c(C(=O)O)c3)o2)sc(N)c1C#N | 11 | 0.6
O=C1NC2(O)C(=O)c3ccccc3C2(O)N1 (configuration not stated) | -0.19 | ·
NC(=O)C1(N2CCCCC2)CCN(C2CC(=O)N(CCc3ccccc3)C2=O)CC1 (configuration not stated) | · | -0.6
NC(=O)COC(=O)c1cccnc1SCC(=O)Nc1ccccc1OC(F)F | · | -0.6
COc1ccc(OCC(=O)NC2Sc3c(OC)ccc(OC)c3N2C)cc1 (configuration not stated) | · | 1.4
NN=C1c2ccccc2-c2ccccc21 | -2.4 | 0.5
Cc1ccc(-c2noc(C3CCCN(S(=O)(=O)c4ccc5c(c4)OCCO5)C3)n2)cc1 (configuration not stated) | · | 0.5
N#CC(C#N)=CNc1cccc(NC(=O)c2cccc(Cl)c2)n1 | -1.1 | -1.1
Cc1c(-c2cccc(NC(=O)CCC3CCCC3)c2)nc2ncccn12 | 49 | 0
Cc1cc2c(cc1N)OCCO2 | · | 1.6
O=C1c2cccc3cccc(c23)C(=O)N1CCN1CCN(S(=O)(=O)c2ccc(Cl)cc2)CC1 | 0.39 | ·
O=C(O)CCCC(=O)c1c[nH]c2ccccc12 | 0.52 | -0.95
COC(=O)C1=C(C)N=c2s/c(=C\c3cccc(Br)c3)c(=O)n2C1c1ccc(OC)cc1 (configuration not stated) | -0.97 | ·
O=C(Oc1coc(CSc2nnc(NC(=O)C3CC3)s2)cc1=O)c1cccs1 | · | -1.1
CCc1ccccc1N(CC(=O)N1CCC(Cc2ccccc2)CC1)S(C)(=O)=O | -0.88 | 3.8
O=C(COC(=O)C1CC1)Nc1ccc(I)cc1 | -0.59 | -0.75
C=CCN(c1ccccc1)S(=O)(=O)c1c(C)[nH]c(=O)[nH]c1=O | -0.9 | 1
Cc1nnc(SCC(=O)NCCc2ccccc2)[nH]c1=O | 0.78 | -0.1
O=c1cc(-c2ccccc2)[nH]c2nc3ccccc3n12 | 21 | -0.15
C/C(=N\c1nnc(Sc2nc3cc(Cl)ccc3s2)s1)N(C)C | -1.5 | -0.2
Cn1c(CNC2CCCCC2)c(C#N)c2ccccc21 | · | -0.7
CCCS(=O)(=O)c1c(S(=O)(=O)CCC)c2ccccn2c1C(=O)N/N=C/c1ccncc1 | -0.25 | ·
CN(Cc1nc(-c2ccccc2)no1)C(=O)C1CCCCC1 | · | -0.15
Cc1cccc(C(=O)OCC(=O)N2CCCc3ccccc32)c1 | · | -0.3
COc1cc(/C=C2\SC(N)=NC2=O)ccc1Oc1ccc(C(F)(F)F)cc1[N+](=O)[O-] | -0.98 | ·
CS(=O)(=O)c1cc(C#N)c(N2CCN(C(=O)c3ccco3)CC2)nc1-c1ccccc1C(F)(F)F | 0.95 | ·
Cc1cccc2cc(C#N)c(NCCCNS(=O)(=O)c3ccccc3)nc12 | · | -0.9
Cc1cc(NC(=O)Nc2ccccc2)n(-c2ccccc2)n1 | -0.57 | 1.4
CCc1ccc(NC(=O)C(=O)NCCN2CCN(S(=O)(=O)c3ccccc3)CC2)cc1 | -0.095 | ·
Cc1ccc2oc(=O)n(CCC#N)c2c1 | -0.31 | -0.5
[O-]c1n[n+](-c2ccc(Cl)cc2)cc2ccccc12 | -1.1 | 0.5
COc1ccc(-c2cn3c4ccccc4n(N)c3n2)cc1OC | 1.3 | -0.4
O=C(O)c1cccc(C(=O)O)c1Br | -0.34 | -3
O=C(Cn1c(=O)oc2ccccc21)N1CCc2ccccc21 | -1.4 | 0.3
CC1(C)C(C(=O)Nc2ccccc2C(F)(F)F)C1(C)C | 0.23 | -0.25
CCOC(=O)c1nnn(-c2nonc2N)c1CN1CCCCC1C (configuration not stated) | 6 | ·
COc1ccc(CC(C(=O)O)N2C(=O)c3ccccc3C2=O)cc1 (configuration not stated) | · | -0.85
Cc1ccc(-c2cc(-c3ccc4c(c3)OCO4)c(C#N)c(N)n2)cc1 | · | 1.1
N#C/C(=C\c1cn[nH]c1-c1cccc(Br)c1)C(=O)O | · | -0.1
CC(C)c1ccc(NC(=O)c2cc(F)cc3c2OCOC3)cc1 | 1.4 | -0.35
COc1cc(/C=N/NC(=O)c2nnn(-c3nonc3N)c2CN2CCCCCC2)cc(Br)c1O | -0.41 | ·
CC(C)(C)NS(=O)(=O)c1ccc(N2C(=O)CC3(CCCC3)C2=O)c(Cl)c1 | -0.24 | -0.05
CC(C)N(Cc1nnc(-c2ccc(Cl)cc2)o1)C(=O)C1COc2ccccc2O1 (configuration not stated) | · | 1.6
COc1ccccc1N(Cc1cc2ccccc2[nH]c1=O)C(=O)C(C)(C)C | · | -0.2
Cc1ccc2cc(CN(Cc3ccccc3)S(C)(=O)=O)c(=O)[nH]c2c1 | · | 2.4
O=S(=O)(NCCSc1ccccc1)c1ccc2c(c1)OCCO2 | 0.39 | -0.1
Fc1ccc(-c2nc3cc(F)c(Cl)cc3nc2-c2ccc(F)cc2)cc1 | -0.32 | ·
CC(=O)N1CCN(C(=O)c2sccc2-c2ccccc2)CC1 | · | 0.7
O=C(Nc1ccccc1C(=O)N1CCC(c2c[nH]c3ccccc23)CC1)c1ccc(-c2ccccc2)cc1 | -0.5 | ·
Cc1nc2ccc(Br)cc2c(C(=O)O)c1I | -0.29 | ·
O=C(NCc1cccc2ccccc12)C12CC3CC(CC(C3)C1)C2 | 0.16 | 0.9
C#CCOC(=O)Nc1ccc(OCC(F)(F)F)nc1 | 0.1 | -0.95
CCC1CCC(=NNC(=O)CNc2ccc(OC)cc2)CC1 (configuration not stated) | · | -0.2
N#CC1(c2ccccc2)CCCN1C(=O)c1ccc(Br)o1 (configuration not stated) | 0.36 | -0.65
CCCN(CCC)S(=O)(=O)c1ccc2c(c1)CCN2C(=O)CC | 0.3 | 0.3
CC1(NCC(=O)N2CCN(S(=O)(=O)c3ccc4ccccc4c3)CC2)CCS(=O)(=O)C1 (configuration not stated) | · | -1
CCOc1ccccc1NC(=O)c1c(NC(=O)c2ccccc2C)sc2c1CCCCC2 | 0.075 | ·
CC1SC2(C(=O)Nc3ccccc32)N(c2ccccc2)C1=O (configuration not stated) | · | -0.8
O=C(Cn1c(=O)oc2ccccc21)NC1CCN(Cc2ccccc2)CC1 | -0.67 | -1.4

# Next part:
Compound | CapD inh | AID504770
O=C(O)C1C2CCC(C2)C1C(=O)N1CC2CC(C1)c1cccc(=O)n1C2 (configuration not stated) | 6 | ·
CC(NC(=O)C(C)(C)C)C1CC2CCC1C2 (configuration not stated) | i | 1.9
Cc1c(NC(=O)/C=C/c2ccccc2)c(=O)n(-c2ccccc2)n1C | 0.16 | ·
C=CC(=O)Nc1ccc(-c2nc3ccc(NC(=O)C=C)cc3[nH]2)cc1 | -1.8 | 2
O=c1c2ccccc2nc(CNc2ccccc2)n1-c1ccccc1 | 26 | -1.1
Cc1nc(-c2ccc3c(c2)CCC(=O)N3)cs1 | -0.04 | ·
O=S(=O)(NNc1c(Cl)cc(Cl)cc1Cl)c1ccc(Cl)c(Cl)c1 | -0.025 | ·
COc1cc(-c2nc3sc4c(c3c(=O)[nH]2)CCCC4)ccc1OCCSc1ccc(C)cc1 | 0.63 | ·
CCOC(=O)N1CCc2[nH]c3ccccc3c2C1 | -0.15 | -1.1
CN1CCc2nc(SCC(=O)OCc3ccccc3)c(C#N)c(-c3ccccc3)c2C1 | 0.72 | ·
CN(C)C(=S)SCN1CCCCCC1=O | -1.3 | 2.6
Cn1c(C(C#N)C(=O)Cc2c(F)cccc2Cl)nc2ccccc21 (configuration not stated) | · | -0.25
Cc1cc(N2CCN(C(c3ccccc3)c3ccccc3Cl)CC2)n2c(nc3ccccc32)c1C#N (configuration not stated) | 3.4 | ·
Cc1ccc(-c2noc(CCC(=O)N3CCCCC3)n2)cc1 | -0.99 | 2
COc1ccc(/C=C2\SC(=S)N(c3ccc(O)cc3)C2=O)cc1 | -0.35 | 0.05
CCOc1ccc(N2CCN(S(=O)(=O)c3cc(Br)ccc3Br)CC2)cc1 | -0.78 | ·
CC1=NN(Cc2ccccc2Cl)C(=O)C1 | · | -1.2
Cc1ccc2c(c1)c1c3n2CNCC3CCC1 (configuration not stated) | 0.22 | -1.8
COc1ccc2c(c1)C(C)=CC(C)(C)N2C(=O)CN1C(=O)CCC1=O | 0.01 | 1
CN1CCC[C@@H]1CCO[C@](C)(c1ccccc1)c1ccc(Cl)cc1 | 1.1&-0.35 | 0.35
COc1ccc(-c2nnc(Nc3ccc(S(=O)(=O)Nc4nccs4)cc3)c3ccccc23)cc1 | 0.53 | ·
CCCn1cnc2sc(C(=O)N3CCC(C(=O)OCC)CC3)c(C)c2c1=O | 0.73 | ·
Fc1ccc(-c2[nH]ncc2CN2CCN(Cc3ccccc3)CC2)cc1 | -0.29 | 0.1
O=C(CN1CCC(C(=O)Nc2ccccc2)CC1)NN1C(=O)NC2(CCCCC2)C1=O | · | 0.45

# Entries of single compounds, looked up by structure. Values in the order: CapD inh	AID504770
# `CC1=NN(Cc2ccccc2Cl)C(=O)C1` is entered as ·	-1.2
# `CN1CCC[C@@H]1CCO[C@](C)(c1ccccc1)c1ccc(Cl)cc1` is entered as 1.1&-0.35	0.35

# Next section
Compound | CapD inh | AID504770
c1ccc(-c2nnn3c2nc(N2CCCC2)c2ccccc23)cc1 | 0.42 | -0.8
CC(NC(=O)c1ccccc1)c1n[nH]c(=S)n1C (configuration not stated) | · | -1
O=c1[nH]c2cc3c(cc2cc1CN(CCO)C(=S)Nc1cccc(Cl)c1)OCO3 | · | 0.35
Cc1ccc(/C=C2/Sc3ccc(C(=O)N4CCN(c5ccccc5F)CC4)cc3NC2=O)cc1 | -0.39 | 1.2
Cc1ccc2c(COC(=O)c3nc(-c4ccccc4)oc3C)cc(=O)oc2c1 | · | 0.3
COc1cc2c(cc1OC)NC(=O)C2 | 0.3 | -0.35
O=S(=O)(c1ccc(-c2cc(C(F)(F)F)no2)s1)N1CCCCC1 | 0.13 | 0.35
CC12CC3CC(C)(C1)CC(C(=O)N1CCCC1)(C3)C2 | 0.44 | 0.25
CCOC(=O)c1c(CN2CCOCC2)n(C)c2cc(Br)c(OC)cc12 | -0.32 | ·
Cc1cc(Oc2ccc(C(F)(F)F)cc2[N+](=O)[O-])n(-c2ccccc2)n1 | -0.39 | ·
CCn1nc(CC(=O)O)c2ccccc2c1=O | -0.45 | 1.4
OC1C2CCN(c3ccccc32)C1Cc1ccccc1 (configuration not stated) | 0.68 | 0.25
O=C(O)c1cc(S(=O)(=O)NCC2COc3ccccc3O2)ccc1Cl (configuration not stated) | · | -0.15
c1ccc(-c2nc(CSc3nncn3-c3ccccc3)cs2)cc1 | · | 0.85
Cc1nc(C(F)(F)F)c(C(=O)NCc2cccc(C(F)(F)F)c2)s1 | -0.62 | ·
CC(=O)N(C)c1ccc(NC(=O)COc2ccc3ccccc3c2)cc1 | 0.48 | ·
S=C(NCc1ccccc1Cl)NC12CC3CC(CC(C3)C1)C2 | -0.015 | -0.25
CC(C)c1ccc(C(=O)CSc2n[nH]c(-c3ccncc3)n2)cc1 | 0.17 | ·
COCCN1Cc2cccc(C(=O)Nc3ccc(S(=O)(=O)N4CCOCC4)cc3)c2C1=O | 1.9 | -1.1
COc1cc(NC(=O)C(NS(=O)(=O)c2ccc3c(c2)oc(=O)n3C)C(C)C)cc(OC)c1 (configuration not stated) | 0.14 | 0.35
CCOC(=O)C1=C(C)N=c2s/c(=C/c3ccc(OC(C)=O)c(OC)c3)c(=O)n2C1c1cccs1 (configuration not stated) | -0.025 | ·
Cc1ccc(C(=O)CSc2nc(C)cc(C)c2C(N)=O)cc1 | -0.9 | 0
CC(C)CN(CC(C)C)Cn1[nH]c(-c2cccs2)nc1=S | · | 0.3
CCN(CC)c1nc(Nc2ccc([N+](=O)[O-])cc2)nc(N(CC)CC)n1 | -1.4 | ·
CC1CC(C)CN(C(=O)C(C)N(C)CC(=O)Nc2ccccc2Cl)C1 (configuration not stated) | · | 0.8
O=C(O)c1cc(=O)[nH]c2ccc(Br)cc12 | 0.22 | ·
CC(C)Cn1c(=O)c2sccc2n2c(CCCC(=O)NC3CCCCCC3)nnc12 | -0.52 | 2.7
CCN1CCN(c2ccc(NC(=O)c3cccc4c3C(=O)N(Cc3cccnc3)C4)cc2)CC1 | -0.14 | -0.55
O=C(CSc1ncc(-c2ccccc2)[nH]1)Nc1cccc(O)c1 | · | -0.15
CC(C)(C)n1ncc2c(=O)n(CC(=O)c3ccc(Cl)cc3)cnc21 | · | 0.1
CN1CCN(CCCNS(=O)(=O)c2cc(Cl)c(Cl)s2)CC1 | -1 | ·
COc1cc(/C=C2/SC(N)=NC2=O)ccc1OCc1ccccc1F | 3.9 | ·
Cc1n[nH]c(C)c1Sc1n[nH]c(=O)[nH]c1=O | 0.13 | -0.35
O=C(NC1Cc2ccccc2C1)c1ccccc1 | 0.13 | ·
CC1CN(S(=O)(=O)c2ccc(C(=O)N=c3sc4cccc(Cl)c4n3C)cc2)CC(C)O1 (configuration not stated) | 0.23 | -0.1
S=C(NCc1cccs1)Nc1ccccc1 | 0.005 | -0.65
COc1ccc(-c2c3c(nc4sc(C(=O)N5CCOCC5)c(N)c24)CC(C)(C)CC3=O)cc1 | -0.28 | -0.2
CCCc1cc(=O)oc2c(CN3CCCC3)c(O)ccc12 | 70 | 1
COc1ccc2c(c1OC)C(=O)O[C@H]2[C@H]1c2cc3c(cc2CCN1C)OCO3 | -0.17 | -0.15
O=C(COc1ccccc1)Oc1ccccc1 | -0.53 | 1.9
COc1ccc(/C=C/C(=O)Nc2ccc(C)cc2C)cc1 | -0.025 | 0.15
